Mtb hypoxia rep: reduces hypoxia-regulated biosensor signal in M. tuberculosis | M. tuberculosis hypoxia-regulated fluorescent reporter, fluorescence | fluorescence inhibition, % (no concentration beside the values) | 300,000 compounds, 0.1% hits;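 active = 35 to 45% if threefold the growth effect, above 45% if 1.5-fold the growth effect; inactive = the rest, general growth blockers included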;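 also: wells of about 50 µL received 100 nL stock; 0% = vehicle wells and 100% = reference inhibitor wells; whole bacteria with a GFP reporter of the hypoxia response; strong numbers were not always called active; many hits fall short of the cut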
BJeLR viability: kills HRASV12-expressing BJeLR cells; BJeLR (HRASV12) viability, CellTiter-Glo ATP luminescence, 48 h; reference of the scale not given here; inhibition, % (no concentration beside the values); 300,000 compounds, 0.17% hits; AID 1554;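 active = replicate mean above 50%; inconclusive = above 50% but judged a plate artefact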;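 also: 50 nL library stock added to about 25 µL; numbers are from one replicate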
Bead autofluor: compound fluorescence in toxin protease inhibitor counterscreen; compound autofluorescence counterscreen, microsphere flow cytometry; active compounds read high; fluorescence intensity (concentration not given with the values); 360,000 compounds, 3.1% hits;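 active = at least 3 SD above the mean of all compounds, about 16000 in these data; inconclusive = too few beads counted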;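 also: 100 nL of 1 mM stock went into each well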
Sa RN4220 lethal: kills Staphylococcus aureus RN4220; 330,000 compounds, 0.33% hits; AID 1259311; inhibition, % (concentration not given with the values); S. aureus RN4220 growth, OD600, 16 h;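 active = z-score of -3 or lower and OD600 up to 0.18 on both plates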;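 also: plate controls were untreated cells for no effect and reference antibiotic for full effect; stock transfer was 100 nL into about 80 µL; one replicate is shown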
PrP 5UTR inh: suppresses PrP 5' UTR mRNA reporter expression. cell-based PrP 5' UTR mRNA reporter, plate reader. inhibition, % (test concentration not listed). 340,000 compounds, 0.35% hits. AID 488862;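 active = every replicate at 50% or more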;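 also: 0 = median of the neutral control wells; tested in H4 reporter cells; numbers are from one replicate; inactives centre near -14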
Sa ugtP lethal: kills S. aureus RN4220 lacking UgtP; 330,000 compounds, 0.54% hits; S. aureus RN4220 ugtP deletion, OD600 growth, 16 h; some inactives read as strong as hits; growth inhibition, % (no concentration beside the values);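 active = z-score under -3 and OD600 up to 0.15 on both plates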;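 also: plate controls were untreated wells for no effect and antibiotic for full effect; wells of about 80 µL received 100 nL stock; the first replicate is given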
Mtb hypoxia rep growth: further read-out of Mtb hypoxia rep, marked with its call; growth inhibition, %; measured here: M. tuberculosis growth (absorbance);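 0% = vehicle and 100% = reference antibiotic; read after six days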
* = called active by the depositor; ? = inconclusive; . = not tested or not shown.

SMILES | Mtb hypoxia rep | Mtb hypoxia rep growth | BJeLR viability | Bead autofluor | Sa RN4220 lethal | PrP 5UTR inh | Sa ugtP lethal
COc1ccc(-c2nnc(SCC(=O)NCc3cccs3)n2C(C)C)cc1 | . | . | -0.4 | 2335 | 0.2 | -9.6 | -2.4
NS(=O)(=O)c1ccc(NC(=S)NC(=O)c2ccc(Br)o2)cc1 | . | . | 5.7 | 3528 | . | -32.5 | .
C/C(=N\NC(=O)c1nnn(-c2nonc2N)c1-c1cccs1)c1ccc(O)cc1 | . | . | -7.5 | 5084 | . | -13.8 | .
COc1cc(C=NNC(=O)c2ccncc2)ccc1Oc1ccc([N+](=O)[O-])cn1 | . | . | . | . | 2.6 | . | 9.4
COc1ccc(CCNc2nc3ccc(C)cc3n3cnnc23)cc1OC | 15.9 | 2.6 | 7.4 | 3207 | 5.8 | -6.3 | 6.3
CCCCN(CC)CCCNC(=O)Cn1nc(Cc2ccncc2)c2ccccc2c1=O | 3.5 | -0.5 | -1.7 | 9945 | 0.3 | -19.1 | 7.3
Cc1ccc2nsnc2c1S(=O)(=O)NCCc1c(C)[nH]c2ccc(F)cc12 | -0.1 | 10.1 | 9.3 | 10868 | 4.3 | -6.8 | 13.8
CCOP(=O)(OCC)C(NC(=O)NS(=O)(=O)c1ccc(C)cc1)c1ccccc1 (configuration not stated) | 5.5 | -0.4 | -1.0 | 3020 | 2.5 | -27.7 | 7.4
CC(C)NC(=O)C1CCN(C2CCN(C(=O)C3=CCCC3)CC2)CC1 | 15.9 | 3.7 | . | 2679 | 4.0 | -47.2 | 1.1
COC(=O)Nc1sc2c(c1C(=O)NCc1ccco1)CCCC2 | 9.2 | 8.3 | -12.9 | 17349* | 2.3 | -3.2 | -0.1
Cc1ccc(S(=O)(=O)N(C)CC(=O)N2CCN(Cc3ccc4c(c3)OCO4)CC2)cc1 | 4.6 | -0.3 | -3.3 | 3964 | -4.1 | -20.7 | -3.2
Nc1ccc(Cc2ccc([N+](=O)[O-])cc2)cc1 | 10.2 | 7.0 | . | 3060 | 4.2 | -42.4 | 13.5
O=C(Nc1ccc(Cl)cc1)N1CC2CC(C1)c1cccc(=O)n1C2 (configuration not stated) | 4.5 | 7.8 | 8.1 | 6713 | -0.3 | -0.3 | 0.8
O=S(Cc1ccc(Cl)cc1)CC(O)(c1ccccc1)c1ccccc1 (configuration not stated) | 13.5 | 12.1 | 8.3 | 10823 | 4.5 | -20.5 | 3.0
Cc1ccc(NC(=S)N(C)C)cc1C | -1.0 | 4.0 | -0.8 | 5732 | 5.0 | -29.9 | 7.8
O=C(CCN1C(=O)c2ccccc2C1=O)Nc1ccc(F)cc1 | 2.2 | 8.8 | -3.9 | 5152 | 5.4 | -64.9 | -1.5
O=C(CC(O)(CC(=O)OCc1ccccc1)C(=O)OCc1ccccc1)OCc1ccccc1 | -0.5 | 8.4 | . | 3638 | 3.3 | -25.4 | 0.6
CC(=O)c1cn(-c2ccc(Cl)cc2)c(=O)[nH]c1=O | 4.2 | 5.6 | -3.3 | 3876 | 4.9 | . | 4.8
COc1ccc(CN2CCC(C(=O)c3ccc(Cl)cc3)CC2)cc1 | -1.5 | 3.0 | -7.7 | 6776 | 0.0 | 10.4 | 0.4
CN(C)c1ccnc(NCc2ccccc2)c1C#N | 10.6 | -1.4 | 3.0 | ? | 4.7 | -43.4 | 12.6
O=C(CN1CCCCCCC1)N/N=C/c1ccc(F)c(F)c1 | . | . | 5.9 | 2573 | . | -0.4 | .
CCCOc1cccc(C(=O)Nc2cccc3ncccc23)c1 | -1.1 | -4.5 | 3.3 | 3616 | 3.5 | -26.5 | -0.9
CC=CC(=O)N1CC2(CC(c3cccc(NC(=O)CC)c3)=NO2)CC1C(N)=O (configuration not stated) | 9.0 | 9.9 | . | . | 3.2 | . | -7.4
O=[N+]([O-])c1ccc(Cl)c(/C=N/NC(=S)Nc2ccccc2)c1 | . | . | 18.7 | 16957* | . | -28.0 | .
Cn1c(=O)c(C(=O)NCCc2ccc(Cl)cc2)c(O)c2ccccc21 | -4.0 | 1.5 | 2.6 | 3842 | 4.3 | -18.7 | 7.5

The closing 5 entries of the section above lead into the next:
SMILES | Mtb hypoxia rep | Mtb hypoxia rep growth | BJeLR viability | Bead autofluor | Sa RN4220 lethal | PrP 5UTR inh | Sa ugtP lethal
O=C(CN1CCCCCCC1)N/N=C/c1ccc(F)c(F)c1 | . | . | 5.9 | 2573 | . | -0.4 | .
CCCOc1cccc(C(=O)Nc2cccc3ncccc23)c1 | -1.1 | -4.5 | 3.3 | 3616 | 3.5 | -26.5 | -0.9
CC=CC(=O)N1CC2(CC(c3cccc(NC(=O)CC)c3)=NO2)CC1C(N)=O (configuration not stated) | 9.0 | 9.9 | . | . | 3.2 | . | -7.4
O=[N+]([O-])c1ccc(Cl)c(/C=N/NC(=S)Nc2ccccc2)c1 | . | . | 18.7 | 16957* | . | -28.0 | .
Cn1c(=O)c(C(=O)NCCc2ccc(Cl)cc2)c(O)c2ccccc21 | -4.0 | 1.5 | 2.6 | 3842 | 4.3 | -18.7 | 7.5
O=C(Nc1nnc(COc2ccc(Cl)cc2)s1)C1CCCO1 (configuration not stated) | . | . | -4.6 | 4598 | 3.1 | -8.4 | 3.7
COC(=O)C1=C(c2ccccc2)C[C@@H]2CC[C@H]1N2C(=O)NCCO | . | . | -8.4 | 2890 | . | -11.8 | .
CCC(=O)n1nc(-c2ccco2)nc1SCc1ccccc1 | . | . | -8.1 | 3444 | 1.5 | -16.5 | 9.0
NC(=O)CN1C(=O)C(=O)N(Cc2cccc(C(F)(F)F)c2)C1=O | 1.4 | -2.0 | 2.5 | 4140 | 1.0 | -20.1 | 3.3
CC(NC(=O)NCCCn1ccnc1)(C(F)(F)F)C(F)(F)F | . | . | -2.0 | 3225 | -0.6 | -12.3 | 7.1
CC(C)(C)n1nnnc1CN1CCN(C2CCCC2)CC1 | . | . | 3.3 | 4821 | 5.2 | -7.1 | 2.9
Cc1ccc(C(=O)Nc2cc(=O)n(C)c(=O)n2C)cc1C | 1.6 | 4.3 | 11.1 | 5783 | 7.0 | -14.3 | -6.3
CN(Cc1nc(Cc2cccc(F)c2)no1)CC1COCCO1 (configuration not stated) | -1.7 | -8.8 | 6.7 | 3757 | 1.1 | -22.0 | 2.1
Cn1c(C(=O)N2CCN(Cc3ccc4c(c3)OCO4)CC2)cc2c(=O)n(C)c3ccccc3c21 | . | . | -5.6 | 5447 | -5.7 | -2.7 | 1.3
CC(C(=O)Nc1ccccc1)c1ccc(-c2ccccc2)c(F)c1 (configuration not stated) | 7.6 | 10.1 | 6.9 | 2955 | -8.1 | -14.0 | -9.0
O=C(Nc1ccnn1C1CCN(Cc2ccccc2F)CC1)C1CCCC1 | -0.3 | -0.6 | -2.4 | ? | 0.9 | -13.7 | 2.1
O=C(N/N=C1\CCc2ccccc21)c1ccc(O)cc1 | . | . | 3.8 | 3237 | . | -45.9 | .
CCc1ccccc1Nc1nc(N)nc(COC(=O)C2CCN(C(=O)c3ccc(F)cc3)CC2)n1 | 6.3 | 4.9 | . | 7125 | 8.5 | -27.4 | 1.7
Cc1ccc(N2C(=O)N(CC(=O)N3CCCc4ccccc43)C(=O)C2C)cc1 (configuration not stated) | 1.8 | -7.6 | 3.5 | 10920 | 2.2 | . | 0.3
Cn1c(Cl)c(/C=N/OC(=O)C(C)(C)C)c2ccccc21 | . | . | 1.9 | 4558 | . | -6.6 | .
O=C(c1cccs1)N1CCCC(N2CCN(c3ccc(F)cc3)CC2)C1 (configuration not stated) | 4.9 | -0.4 | 12.9 | 5270 | 0.3 | -10.8 | 0.2
CCOc1ccc(NC(=O)Nc2nc3ccc(S(C)(=O)=O)cc3s2)cc1 | -2.2 | 1.5 | 4.9 | 5740 | -1.0 | 1.6 | -1.3
CCOc1cc(C=NNc2nc(Nc3ccccc3)nc(N3CCOCC3)n2)ccc1OC(=O)c1ccco1 | 1.7 | 4.9 | . | . | 4.4 | . | -12.2
Cc1ccc(C)c(COc2coc(CN3CCN(C(=O)c4ccco4)CC3)cc2=O)c1 | 8.0 | -2.5 | 5.7 | ? | 3.5 | -6.2 | 13.8
COc1ccc(S(=O)(=O)N2c3ccccc3OCC2c2ccccc2)cc1 (configuration not stated) | 2.7 | 3.1 | 5.1 | 2995 | 4.1 | -22.8 | 53.5
CCOC(=O)Cn1cnc2c(nnn2Cc2ccc(Cl)cc2)c1=O | -0.6 | 4.5 | -9.7 | 8044 | 2.1 | -12.7 | 12.6
CC1(c2ccc3ccccc3c2)NC(=O)N(CC(=O)N2CCN(c3ccccc3O)CC2)C1=O (configuration not stated) | 5.4 | 3.4 | 11.7 | 4706 | -2.3 | -1.4 | -14.7
CCc1cc(=O)oc2cc(OC(C)C(=O)NCC3CCC(C(=O)O)CC3)c(Cl)cc12 (configuration not stated) | . | . | -6.3 | 5237 | 1.2 | -33.6 | -1.6
CCOC(=O)c1c(C)[nH]c(C(=O)COC(=O)C(C)Oc2ccc(Cl)cc2Cl)c1C (configuration not stated) | 6.4 | 3.3 | 3.6 | 7475 | -5.1 | -7.7 | -8.9
Nc1ccc(/C=C/C(=O)c2ccco2)cc1 | 14.4 | 5.8 | -4.1 | 3476 | 6.5 | -52.0 | -9.3

Reprinted from the part before: three compounds; new compounds follow.
SMILES | Mtb hypoxia rep | Mtb hypoxia rep growth | BJeLR viability | Bead autofluor | Sa RN4220 lethal | PrP 5UTR inh | Sa ugtP lethal
CCc1cc(=O)oc2cc(OC(C)C(=O)NCC3CCC(C(=O)O)CC3)c(Cl)cc12 (configuration not stated) | . | . | -6.3 | 5237 | 1.2 | -33.6 | -1.6
CCOC(=O)c1c(C)[nH]c(C(=O)COC(=O)C(C)Oc2ccc(Cl)cc2Cl)c1C (configuration not stated) | 6.4 | 3.3 | 3.6 | 7475 | -5.1 | -7.7 | -8.9
Nc1ccc(/C=C/C(=O)c2ccco2)cc1 | 14.4 | 5.8 | -4.1 | 3476 | 6.5 | -52.0 | -9.3
CNC(=O)/C(C#N)=C/c1cn(CC(=O)NCc2ccco2)c2ccccc12 | -1.8 | 5.9 | -11.5 | 4306 | 0.9 | -16.0 | 7.8
CSc1ncc(/C=C2/C(=O)NC(=O)N(C3CCCCC3)C2=O)cn1 | . | . | -0.3 | 2442 | 1.3 | -21.4 | 0.9
COc1ccc(C2CC(c3ccccc3)=NN2C(=O)COC(=O)c2ccc(Cl)nc2)cc1 (configuration not stated) | 10.3 | 2.4 | 12.0 | 2413 | 12.7 | -7.8 | 3.6
CCC1(CC)NC(=O)NC1=O | 3.2 | 3.7 | -2.3 | 3296 | 5.5 | -3.1 | -0.5
COC(=O)[C@H](C)NC(=O)Nc1ccc(OC)cc1OC | . | . | 8.7 | 2852 | . | -10.5 | .
Cc1cccc(Cn2cnc3c(nnn3Cc3ccc(F)cc3)c2=O)c1 | 1.7 | 2.1 | -4.1 | 11375 | 3.2 | . | -0.6
CN1CCN(C(=O)CC23CC4CC(CC(C4)C2)C3)CC1 | 18.7 | 6.7 | -0.3 | 2967 | -0.2 | -28.6 | 6.0
COC(=O)c1cc(NC(=O)c2ccc([N+](=O)[O-])cc2)c(=O)oc1C | 5.0 | 1.0 | -0.1 | 2553 | 3.1 | -8.4 | 1.6
CCOC(=O)c1[nH]c(C)c(C(=O)NC(C)CC)c1C (configuration not stated) | . | . | -6.0 | 5433 | 4.9 | -35.9 | 7.5
Cc1c(Cl)cccc1NC(=O)CNc1cccc(S(=O)(=O)N(C)C)c1 | . | . | -0.8 | 2144 | 4.8 | -7.0 | 8.2
CN(Cc1ccccc1)C(=O)COC(=O)c1cc(NS(=O)(=O)c2cccs2)ccc1O | 11.7 | -1.0 | 3.2 | 4329 | 4.5 | -30.0 | -3.0
Cn1c(SCC(=O)Nc2ccccc2C(F)(F)F)nc2c(c1=O)SCC2 | 6.0 | -9.5 | 7.6 | 6770 | 1.3 | -21.2 | 1.9

Bioassay records: PubChem BioAssay, several laboratories
